# Lassa entry inh: inhibitors of Lassa virus binding or cell entry; Lassa virus pseudotype entry inhibition, cell reporter; control for the full effect not named in the record; Potency, µM (titrated, usually from 37.9 µM), inactives show top-dose activity change, negative = inhibition, most hits filed as inhibitors; actives 1.2% (n = 300,000); AID 540256; active means well fitted inhibition curve with a large enough effect; inconclusive means small, poorly fitted or top-dose-only effect, or effect the other way; inactive means flat fitted curve, though single readings scatter; tested in HEK293 cells; note: % is set by controls: 0 for no effect and ±100 for the full control effect; nearly all actives have a fitted effect of over 50% in size; luciferase read-out
# NS1 function inh: blocks influenza NS1 protein function; S. cerevisiae slowed by influenza A NS1, growth recovery by OD600; Potency, µM (series often up to 46.1 µM), without a hit: at the top dose activity, positive = more growth; actives 0.4% (n = 270,000); AID 2326; note: actives are rising curves; nearly all actives have a fitted effect of over 50% in size
#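 A cell-based growth assay was used: compounds that relieve NS1-induced slow growth of budding yeast raise OD600. Assay medium was yeast nitrogen base with ammonium sulphate and -URA supplement, pH 6.0, with 2% galactose.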
# SARS PLpro yeast: blocks SARS-CoV papain-like protease in a yeast assay. S. cerevisiae expressing SARS-CoV PLpro, growth rescue; control for the full effect not named in the record. Potency, µM (titrated, usually from 32.9 µM), for the others: at the highest dose activity, positive = growth rescue. actives 0.19% (n = 330,000). AID 485353; note: 0% is about no effect; nearly all actives have a fitted effect of over 55% in size; growth read by luminescence after 48 h
# Cruzain noTriton: cruzain (T. cruzi) inhibition without detergent; P25779; purified cruzain, Z-FR-AMC fluorescence, no detergent; Potency, µM, without a hit: max response, negative = inhibition, actives largely listed as inhibitors; actives 2.3% (n = 200,000); AID 1476; active = well fitted curve in the direction sought with a large enough effect; inconclusive = small, poorly fitted or top-dose-only effect, or another doubt; inactive = no such curve, though single readings can be large; an effect the other way counts as inactive or inconclusive;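 note: plate controls were enzyme without inhibitor for no effect and buffer without enzyme for full effect; nearly all actives have a fitted effect of over 40% in size; top concentration of the series not given in the record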
# Target sequence (P25779 123-467 limits assumed): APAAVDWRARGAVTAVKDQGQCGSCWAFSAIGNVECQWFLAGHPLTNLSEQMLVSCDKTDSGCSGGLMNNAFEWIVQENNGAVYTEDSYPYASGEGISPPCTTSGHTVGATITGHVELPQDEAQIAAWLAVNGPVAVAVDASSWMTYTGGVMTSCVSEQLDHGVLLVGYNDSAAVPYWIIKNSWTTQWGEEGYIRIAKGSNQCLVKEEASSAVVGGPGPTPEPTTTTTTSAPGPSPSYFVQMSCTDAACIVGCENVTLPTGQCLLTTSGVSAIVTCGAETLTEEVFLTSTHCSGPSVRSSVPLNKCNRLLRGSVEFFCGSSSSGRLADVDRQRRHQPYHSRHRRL
#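 Purified cruzain at 1.5 nM, pre-incubated 15 min with compound at room temperature in 100 mM sodium acetate pH 5.5, 5 mM DTT, 0.00005% Triton X-100. Reaction started with 2 uM Z-FR-AMC; AMC fluorescence increase over 60 s gives rate.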
# 2A StopGo: lowers the luciferase signal of an FMDV 2A StopGo reporter | human cells with a luciferase reporter of 2A StopGo recoding; control for the full effect not named in the record | actives 1.2% (n = 410,000) | AID 1159524 | Potency, µM (highest dose often 57.9 µM), for inactives: top-dose signal change, negative = less light; active = well fitted falling curve with a large enough effect; inconclusive = small, poorly fitted or top-dose-only effect; inactive = no such curve, though single readings can be large or run the other way; tested in HEK293T cells; note: % is set by controls: 0 for no effect and ±100 for the full control effect; nearly all actives have a fitted effect of over 45% in size; luciferase light after 4 h
# Marburg entry inh: Marburg virus entry inhibition; Marburg virus pseudotyped entry inhibition, cell reporter; control for the full effect not named in the record; about a third of the inactives were read at about 46 µM; actives 1.8% (n = 300,000); Potency, µM (top dose mostly 37.8 µM), for the others: top-dose activity change, negative = inhibition, most hits filed as inhibitors; active = well fitted inhibition curve with a large enough effect; inconclusive = small, poorly fitted or top-dose-only effect, or effect the other way; inactive = flat fitted curve, though single readings scatter; tested in HEK293 cells; about a fifth of its hits are not listed in these tables; note: % is set by controls: 0 for no effect and ±100 for the full control effect; luciferase read-out
# RE007 growth inh: less growth of the S. pombe RE007 Vpr strain; S. pombe RE007 Vpr strain, BacTiter-Glo ATP luminescence, 24 h; control for the full effect not named in the record; Potency, µM (highest dose often 92.2 µM), inactives show at the highest dose activity change, negative = less growth; AID 651644; actives 0.21% (n = 360,000); active = well fitted falling curve with a large enough effect; inconclusive = small, poorly fitted or top-dose-only effect; inactive = no such curve, though single readings can be large or run the other way;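 note: % is set by controls: 0 for no effect and ±100 for the full control effect; nearly all actives have a fitted effect of over 50% in size; the assay follows cell death caused by Vpr and the record does not say whether a fall means rescue or toxicity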
#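 Fission yeast RE007 carrying one integrated HIV-1 vpr copy, seeded at OD 0.01 in PMG+AL medium with 23 nL pinned compound. Grown 24 h at 30 degrees; viability read by BacTiter-Glo luminescence after 5 min.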
# Cruzain inh Det: inhibitors of Trypanosoma cruzi cruzain with detergent | P25779 | purified cruzain, Z-FR-AMC fluorescence, 0.01% Triton | Potency, µM, without a hit: max response, negative = inhibition, usual class: inhibitors | actives 0.43% (n = 200,000); active = well fitted curve in the direction sought with a large enough effect; inconclusive = small, poorly fitted or top-dose-only effect, or another doubt; inactive = no such curve, though single readings can be large; an effect the other way counts as inactive or inconclusive;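 note: plate controls were neutral wells for no effect and buffer without enzyme for full effect; nearly all actives have a fitted effect of over 40% in size; top concentration of the series not given in the record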
#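 Enzyme 1.5 nM, Z-FR-AMC 2 uM, NaOAc 100 mM pH 5.5, DTT 5 mM, Triton X-100 0.01%; 15 min RT compound preincubation; kinetic ex360/em450, 60 s delta.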
# Numbers without * were called inactive; ? = inconclusive; nt = no result given; & = joins results of further samples; [ ] = dose if it differs, or a comment. Unless noted, calls come from the whole dose curve; as a rule, active means well fitted rising curve with a large enough effect; inconclusive means small, poorly fitted or top-dose-only effect; inactive means no such curve, though single readings can be large or run the other way. Potency is the fitted concentration of half-maximal effect.
# Value order – Lassa entry inh	NS1 function inh	SARS PLpro yeast	Cruzain noTriton	2A StopGo	Marburg entry inh	RE007 growth inh	Cruzain inh Det
COc1ccc(OC)c(C(=O)Cn2nnc(-c3ccc(N4CCOCC4)cc3)n2)c1
  nt	-2%	0%	nt	-21%	nt	-1%	nt
O=C(NCC1CCCO1)C(c1ccc(N2CCOCC2)cc1)N(C(=O)Cn1nnc2ccccc21)c1ccccc1F (configuration not stated)
  -27%	-4%	3%	nt	-1%	11%	21%	nt
N=c1c2c(-c3ccccc3)c(-c3ccccc3)n(Cc3ccco3)c2ncn1CCCO
  ?	3%	0%	nt	?	5.6µM*	-7%	nt
Cc1ccc(NC(=O)c2ccc3[nH]c(C)cc(=O)c3c2)cc1
  22%[46.1 µM]	nt	nt	2%	-11%	-3%[46.1 µM]	nt	-3.8%
Cc1cccc(NC(=O)C2CCN(S(=O)(=O)c3ccc4c(c3)NC(=O)CO4)CC2)c1
  nt	6%	-2%	nt	16%	nt	-3%	nt
CCNC(=S)NNC(=O)c1cc(CC(C)C)nc2ccccc12
  6%	12%	0%	2%	50%[activator]	-24%	-7%	9.8%
CCN(CC)CCCn1c2c(c(SCC(=O)Nc3ccccc3Cl)nc1=O)CCC2
  -10%	nt	-3%	nt	-19%	-25%	0%	nt
CCCCOc1ccc(C(=O)NCCC(=O)NCCCC(=O)OCC)cc1
  -20%	5%	1%	nt	5%	22%	-12%	nt
CC1CCc2c(sc3nn[nH]c(=O)c23)C1 (configuration not stated)
  13%	1%	-6%	-3%	nt	5%	-15%	-2.9%
CC1CCCC(NC(=O)CCNC(=O)c2ccc(Br)cc2)C1C (configuration not stated)
  0%	nt	-4%	nt	-9%	-1%	3%	nt
Cc1nnc(CN(C)Cc2cn[nH]c2-c2ccc(-c3ccccc3)cc2)o1
  5%	-9%	0%	nt	2%	13%[46.1 µM]	5%	nt
COc1cccc(CCNC(=O)C2CCCN(c3ncnc4c3nc3n4CCCCC3)C2)c1OC (configuration not stated)
  ?	-5%	?	nt	-18%	?	-11%	nt
CCc1ccccc1NC(=O)Nc1cnccn1
  nt	-1%	-5%	nt	-20%	nt	-3%	nt
O=C(Nc1cccc(-c2nnc(-c3ccccc3)o2)c1)C1CC1
  -17%	-12%	1%	nt	49%[activator]	?	2%	nt
O=c1c2ccccc2nc(-c2ccc(Cl)cc2Cl)n1-c1nccs1
  ?	2%	-23%	?	0%	-24%	-4%	-3.9%
COc1ccc(Cl)cc1NC(=O)Cn1c(=O)n(Cc2ccc(F)cc2)c(=O)c2cccnc21
  nt	nt	nt	-4%	-6%	2%[46.1 µM]	nt	-2.3%
CN1CCN(CCN2CCn3c2nc2ccccc23)CC1
  14%	-6%	5%	-3%	-1%	24%	-2%	0.9%
N#Cc1c(-n2ncnc2-c2ccc(F)cc2)sc2c1CCCCC2
  -3%[46.1 µM]	nt	nt	-3%	?	nt	nt	-4.6%
Clc1ccc(CN2CCc3nc(N4CCN(c5ccccn5)CC4)ncc3C2)cc1
  0%[46.1 µM]	nt	nt	7%	?	nt	nt	-1.0%
C=CCOc1c(Br)cc(/C=N/O)cc1OCC
  ?	-3%	-35%	-9%	0%	?	-20%	-4.1%
CN(CCc1ccccn1)S(=O)(=O)c1ccccc1F
  1%	5%	-4%	-1%	9%	12%	8%	-6.1%
COc1ccccc1-c1cc(C2CC2)nc(N)c1C#N
  22%[14.3 µM]	4%	-2%	-10%	18%	3%	2%	-7.1%
COc1ccc2cc(C3CC(c4cccs4)=NN3S(C)(=O)=O)c(Cl)nc2c1 (configuration not stated)
  -1%	?	-8%	-1%	37%[activator]	?	15%	-11%
Cc1c(OCC(=O)NC2CCN(Cc3ccccc3)CC2)ccc2c3c(c(=O)oc12)CCC3
  nt	-11%	-2%	nt	-8%	nt	2%	nt
COC(=O)c1nc2n(n1)C(c1cccc(Cl)c1)C1=C(CC(C)(C)CC1=O)N2 (configuration not stated)
  nt	3%	3%	-10%	-11%	nt	14%	1.9%
Cn1c(Cn2c(=O)sc3ccccc32)nnc1SCC(=O)NCC1CCCO1 (configuration not stated)
  nt	?	-14%	-13%	-4%	nt	10%	-2.5%
O=C(C1CC1)N1N=C(c2ccc(F)cc2)CC1(O)C(F)(F)F (configuration not stated)
  6%	-20%	-1%	nt	-19%	11%	-20%	nt
O=C(CN1CCOCC1)NCc1ccccc1Cl
  21%[46.1 µM]	7%	0%	nt	12%	-1%[46.1 µM]	4%	nt
CCOc1ccccc1NC(=O)c1ccc2ccccc2c1
  -4%[46.1 µM]	-25%	-6%	nt	16%	-8%[46.1 µM]	-16%	nt
O=C(CN1C(=O)c2cccc3cccc1c23)N1CCN(c2cccc(Cl)c2)CC1
  1%	24%	5%	?	-5%	?	-3%	-0.8%
CCCc1nnc(NC(=O)CCC(=O)N2CCN(CCOC(c3ccccc3)c3ccccc3)CC2)s1
  2%	-8%	0%	?	-23%	?	-17%	3.3%
CCOc1ccc(-c2nc(Cn3c(=O)cc(-c4ccccc4)c4c(C)nn(C)c43)c(C)o2)cc1
  19%[46.1 µM]	nt	nt	-1%	22%	nt	nt	0.0%
CCCCNC(=O)Nc1ccccc1C(=O)Nc1ccc(OC)cc1
  18%	-10%	2%	-1%	18%	?	1%	3.1%
CC(C)Oc1ccc(CNC(=O)c2ccc(Cn3c(=O)c4cccn4c4cccnc43)cc2)cc1
  -15%[46.1 µM]	nt	nt	-5%	-10%	nt	nt	-1.1%
CCCc1cc(=O)[nH]c(SCC(=O)NN(c2ccccc2)c2ccccc2)n1
  8%[46.1 µM]	nt	-8%	nt	1%	0%[46.1 µM]	6%	nt
O=C(CN1CCN(C(=O)c2ccco2)CC1)Nc1ccc(Cl)c(C(F)(F)F)c1
  -30%	-46%	-5%	?	?	-2%	-15%	-6.6%
CCOP(=O)(c1ccc(N(C)C)cc1)C(O)c1ccc(Cl)cc1 (configuration not stated)
  ?	-11%	2%	22%	3%	16%	-10%	3.0%
Clc1ccc2oc(-c3cccnc3)nc2c1
  18%	-3%	0%	-9%	52%[activator]	9%	-24%	0.5%
O=C1N=C(N2CCOCC2)S/C1=C/c1cc2c(cc1[N+](=O)[O-])OCO2
  ?	5%	0%	nt	11%	-27%[46.1 µM]	-2%	nt
COc1ccc(OC)c(C(=O)N2CCCC(Nc3ccc(F)cc3)C2)c1 (configuration not stated)
  11%	2%	-1%	nt	0%	0%	-5%	nt
COC(=O)c1ccc(C(=O)OC)c(NC(=O)COC(=O)C2CCCCC2)c1
  ?	11%	-1%	15%	2%	8%	-4%	-3.9%
COc1ccc(NC(=O)N(Cc2cc3cc(OC)ccc3[nH]c2=O)CC2CCCO2)cc1 (configuration not stated)
  ?	6%	3%	1%	-11%	-36%	5%	-4.2%
CC(=O)Nc1ccc(S(=O)(=O)Nc2ccc(S(=O)(=O)N3CCCC3)cc2)cc1
  ?	0%	-20%	-1%	50%[activator]	8%	0%	-1.2%
COc1cc(OC)cc(C(=O)N[C@H](C(=O)NC2=NCCS2)C(C)C)c1
  -2%	nt	2%	nt	-10%	8%	24%	nt
COc1ccc(NC(=O)COC(=O)Cc2c(F)cccc2Cl)cc1OC
  6%	-4%	-3%	nt	-23%	8%[46.1 µM]	11%	nt
COC(=O)c1cccc(Nc2nc(-c3ccncc3)nc3ccccc23)c1
  ?	1%	-5%	nt	-18%	?	-11%	nt
Cc1ccc(C(=O)NCC(=O)NCc2cc(=O)n(C)c(=O)n2C)cc1
  nt	-18%	2%	nt	-6%	nt	10%	nt
COc1ccc2occ(C(=O)c3ccc(N)cc3)c2c1
  nt	-1%	-6%	nt	10%	nt	-9%	nt
Nn1c(SCC(=O)Nc2ccc3c(c2)OCO3)nnc1-c1ccc(Cl)cc1
  8%	-6%	3%	0%	14%	6%	1%	1.4%
O=C(O)c1csc(-c2cccc(Cl)c2)n1
  nt	-7%	-2%	nt	14%	nt	1%	nt
COc1ccccc1NC(=O)CSc1nnc(Cc2cc(=O)[nH]c(=O)[nH]2)n1-c1ccccc1
  -1%	1%	1%	-14%	-4%	?	2%	-3.6%
CCOc1ccc(Cc2nnc(SCC(N)=O)n2C)cc1
  -10%	-2%	1%	4%	-4%	20%	-13%	11%
COc1ccc(Cc2nc3ccc(C(=O)NCCc4cccc(C)n4)cc3o2)cc1
  nt	-12%	-1%	nt	-2%	nt	12%	nt
Cc1ccc(Cn2ncc(Cl)c(Cl)c2=O)cc1
  ?	-28%	-21%	-10%	40µM*	?	12%	-9.2%
CC(=O)Nc1cccc(NC(=O)CSc2nccn2Cc2ccco2)c1
  13%	7%	2%	4%	-27%&-9%	14%&14%	6%	0.2%
CCOc1ccc(C2C(C#N)=C(N)Oc3cc(O)ccc32)cc1OCC (configuration not stated)
  nt	7%	-2%	nt	?	nt	-7%	nt

# Compounds above that contain bromine:
# Value order – Lassa entry inh	NS1 function inh	SARS PLpro yeast	Cruzain noTriton	2A StopGo	Marburg entry inh	RE007 growth inh	Cruzain inh Det
CC1CCCC(NC(=O)CCNC(=O)c2ccc(Br)cc2)C1C (configuration not stated)
  0%	nt	-4%	nt	-9%	-1%	3%	nt
C=CCOc1c(Br)cc(/C=N/O)cc1OCC
  ?	-3%	-35%	-9%	0%	?	-20%	-4.1%
